A1 inh: inhibitors of the anti-apoptotic protein A1, read as caspase activation | MEF A1-2A-BIM cells, Caspase-Glo 3/7 luminescence, 3 h; percent of clofoctol response, vehicle zero | 330,000 tested, 0.066% active | caspase activation, % (test concentration not listed);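 active = over half of replicate activation scores above 10%, or exactly half above 10 with the replicate mean above 10; inconclusive = replicate mean below 10 yet half the replicates above 10; inactive = over half of replicates below 10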;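 also: wells of about 30 µL received 50 nL stock; many hits fall short of the cut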
T cruzi repl: T. cruzi replication inhibition. 300,000 tested, 1.4% active. T. cruzi beta-gal in NIH3T3, luminescence, 90 h. inhibition, % (test concentration not listed). AID 1885;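 active = mean inhibition across valid replicates above about 55%, limit read from the data; inconclusive = mean below that limit but half or more replicates reach it; inactive = mean below it, under half of replicates reach it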;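 also: signal also drops with host cell toxicity which is not excluded here; 0% = plate median of DMSO wells and 100% = zero luminescence signal; higher percent means less beta-gal luminescence so fewer parasites; stock transfer was 50 nL into about 50 µL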
MLL AF4-AF9 inh: blocks AF4 peptide binding to human AF9; 350,000 tested, 0.47% active; inhibition, % at 10 µM; AID 651704; P42568; AlphaScreen, biotin-AF4 peptide binding to FLAG-AF9;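 active = every replicate reaching a set inhibition limit, whatever the replicate mean, cut at about 25% in these data; inconclusive = mean inhibition reaches that limit but some replicates miss it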;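 also: 0% = plate neutral control median and 100% = total signal loss; the record names both 10 and 1 µM as test concentration; the first replicate is given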
Target sequence (P42568 whole entry, looked up): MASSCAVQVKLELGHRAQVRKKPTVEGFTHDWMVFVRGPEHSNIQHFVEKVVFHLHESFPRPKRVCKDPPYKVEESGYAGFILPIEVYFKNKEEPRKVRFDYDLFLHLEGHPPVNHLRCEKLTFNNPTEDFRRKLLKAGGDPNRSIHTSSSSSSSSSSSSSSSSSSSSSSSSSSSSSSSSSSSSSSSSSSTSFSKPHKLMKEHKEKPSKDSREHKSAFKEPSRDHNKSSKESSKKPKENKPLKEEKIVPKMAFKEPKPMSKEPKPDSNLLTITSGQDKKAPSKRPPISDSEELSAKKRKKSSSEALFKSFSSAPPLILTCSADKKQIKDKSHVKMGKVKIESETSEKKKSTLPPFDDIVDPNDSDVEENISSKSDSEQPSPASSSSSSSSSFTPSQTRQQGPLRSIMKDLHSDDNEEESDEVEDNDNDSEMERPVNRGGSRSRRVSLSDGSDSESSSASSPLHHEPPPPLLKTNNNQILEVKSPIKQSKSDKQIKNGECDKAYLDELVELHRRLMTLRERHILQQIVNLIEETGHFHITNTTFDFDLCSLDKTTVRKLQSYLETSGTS
Calb FLC: C. albicans growth modulation with fluconazole. C. albicans CaCi-2 (fluconazole-resistant clinical isolate) + fluconazole, Alamar Blue growth, 48 h. growth inhibition, % (test concentration not listed). 300,000 tested, 0.57% active. AID 1979;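 active = most replicates above 75%; inconclusive = exactly half above 75%; inactive = most below 75%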;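 also: all wells also contain fluconazole at 8 µg/ml as a sub-toxic cotreatment; 0% = median of DMSO wells and 100% = median of geldanamycin control wells; wells of about 8 µL received 7.5 nL stock; the first replicate is given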
Beta apoptosis: beta cell apoptosis inhibition | AID 435005 | INS-1E cytokine-induced death, ATP luminescence, 48 h; percent of positive-control rescue, neutral wells zero | 300,000 tested, 0.8% active | protection from apoptosis, % (no concentration beside the values);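 active = all replicates at 75% or more, or half of them and the mean; inconclusive = half reach 75% but not the mean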;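 also: 0% = cytokine-treated negative control wells and 100% = positive control rescue; higher means more ATP so stronger rescue from cytokine killing; wells of about 40 µL received 100 nL stock; the first replicate is given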
rRNA inh HTS: selective bacterial rRNA inhibition in E. coli | E. coli WT GFP vs humanized-ribosome RFP mutants, fluorescence, 24 h; stronger effect = lower value; DMSO median 0, no signal -100 | GFP signal change (wild-type ribosome), % (concentration not given with the values) | 350,000 tested, 1.6% active | AID 720706;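 active = significant combined selectivity score with lowered wild-type GFP, culture density cut under 30%, mutant RFP and density less affected; inactive = any of these conditions unmet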; also: one replicate is shown; some compounds called inactive have numbers as strong as hits
RanGTP-Imp inh: inhibitors of RanGTP-importin-beta interaction, primary screen, biochemical, FRET, CFP-Ran, YFP-importin-beta, homogeneous; inhibition, % (concentration not given with the values); AID 2216; 300,000 tested, 1.1% active; cell-free CFP-Ran/YFP-importin-beta FRET ratio;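 active = most replicates above 15%; inconclusive = exactly half above 15%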;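 also: 0% = DMSO wells and 100% = Ran loaded with GDP instead of GTP; wells of about 40 µL received 100 nL stock; the first replicate is given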
Vif TR-FRET: HIV-1 Vif–A3G interaction blockers – biochemical, TR-FRET, GST-Vif 1-94, biotin-A3G peptide, dose response retest, primary screen (AID 1117319); TR-FRET GST-Vif / biotin-A3G peptide binding; higher % means a stronger effect; test concentration not given here; strong numbers were not always called active; inhibition, %; hits with a dose series show IC50 in µM; 260,000 tested, 0.57% active;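 active = above the screen mean plus three standard deviations and confirmed in dose response; inconclusive = results disagree or hit not tested in dose response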;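 also: Vif residues 1-94 fused to GST binding biotinylated APOBEC3G peptide 110-148; 0% = full assay without inhibitor and 100% = GST in place of GST-Vif; retest series ran down from 100 µM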
rRNA inh HTS OD600: also measured in rRNA inh HTS; calls as there; OD600 change, %; measured here: OD600 growth;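 optical density of the mix in the first replicate; 0 = DMSO median and -100 = no signal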
rRNA inh HTS RFP: further read-out of rRNA inh HTS, marked with its call; RFP signal change, %; measured here: RFP humanized mutant strains;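 first replicate; 0 = DMSO median and -100 = no signal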
* = called active by the depositor; u = inconclusive; x = not tested or not shown; & = joins results of further samples.

nr | Structure | A1 inh | T cruzi repl | MLL AF4-AF9 inh | Calb FLC | Beta apoptosis
1 | COCCCNC(=O)c1ccccc1SC | -0.1 | 7 | -3.9 | 23 | -5
2 | COCCC(=O)N1CCC(Oc2ccc(C(=O)N(C)Cc3cc(C)no3)cc2)CC1 | 0.0 | -8 | -4.2 | -5 | 3
3 | Cc1nn(-c2ccccc2)c2sc(C(=O)NC3CC3)cc12 | 0.0 | -15 | x | 34 | 2
4 | CC1CCCN(S(=O)(=O)c2ccc(NC(=O)Cc3ccc(S(=O)(=O)N4CCOCC4)s3)cc2)C1 (stereo unspecified) | -1.0 | 26 | 0.9 | 17 | 10
5 | CC(=O)NC(Cc1ccccc1)C(=O)OCC(=O)c1ccccc1 (stereo unspecified) | -0.2 | -17 | -2.2 | 32 | -1
6 | COc1ccc(CCNC(=S)Nc2ccccc2)cc1 | 1.3 | -13 | -0.3 | -2 | -5
7 | O=S(=O)(Nc1cc2nc3ccccc3nc2n1Cc1ccccc1)c1ccc(Cl)cc1 | 0.3 | 2 | -2.5 | 25 | 3
8 | COC(=O)c1ccc(CN2CCC(Oc3cccc(C(=O)N4CCCC4)c3)CC2)cc1 | -0.5 | -11 | -4.6 | -10 | -1
9 | O=S(=O)(c1ccccc1)N1CCC2(CC1)OCCN2S(=O)(=O)c1cccs1 | x | 13 | -1.7 | 0 | x
10 | CC1Cc2ccccc2N1S(=O)(=O)c1cccc(C(=O)c2nccn2C)c1 (stereo unspecified) | -2.1 | -4 | 0.2 | 11 | -6
11 | Clc1cccc2sc(-c3nnc(-c4ccccc4)o3)c(Cl)c12 | -0.6 | -7 | x | 3 | 2
12 | CCC(=O)c1ccc(OCC(O)CN2CCN(c3ccccn3)CC2)cc1 (stereo unspecified) | 0.3 | 17 | -1.0 | -1 | -1

nr | rRNA inh HTS | rRNA inh HTS OD600 | rRNA inh HTS RFP | RanGTP-Imp inh | Vif TR-FRET
1 | 14 | 4 | 4.3 | 0.3 | 12%
2 | 6 | 11 | -1.0 | u | -7%
3 | x | x | x | 3.4 | -2%
4 | -4 | -7 | 6.6 | 1.4 | 8%
5 | x | x | x | -2.9 | 1%
6 | -10 | -4 | 0.5 | -2.9 | x
7 | -18 | -7 | -1.2 | 2.2 | -12%
8 | x | x | x | 0.4 | x
9 | 2 | -4 | -1.6 | 2.5 | -9%
10 | -23 | -20 | -0.6 | 6.6 | u
11 | x | x | x | 3.0 | x
12 | 0 | 3 | -2.8 | -1.8 | x

New compounds follow
nr | Structure | A1 inh | T cruzi repl | MLL AF4-AF9 inh | Calb FLC | Beta apoptosis
13 | COc1cc2c(cc1NC(=S)Nc1cccc3ccccc13)oc1ccccc12 | 0.1 | 30 | x | -10 | -4
14 | NC(=S)N/N=C/c1ccc(OC(=O)c2cccnc2)cc1 | -4.2 | -15 | -4.8 | -10 | -5
15 | Cc1ccc(NC(=O)c2cccc3cccnc23)cc1 | 0.4 | 7 | 0.0 | -6 | 3
16 | CCCCN(C(=O)CCC(=O)Nc1cc(C)on1)C(C(=O)NC1CCCC1)c1ccccc1C (stereo unspecified) | 0.4 | 3 | -0.9 | 35 | -3
17 | O=C(N/N=C(\c1ccccc1)c1ccccn1)c1cccc([N+](=O)[O-])c1 | 1.0 | 58* | x | 113* | 102*
18 | CCOC(=O)CNS(=O)(=O)c1ccc(S(=O)(=O)NC2CC2)cc1 | 1.3 | -9 | -4.5 | 6 | -2
19 | CCN1C(=O)[C@@H]2[C@H](C1=O)[C@@H]1CC(C(=O)OC)=C[C@@H](C(=O)OC)C3C1=C(C(=O)C3(CC)CC)[C@@H]2C (stereo partly specified) | -0.3 | 12 | 1.3 | -1 | -7
20 | O=C(/C=C/c1ccccc1)N1CCN(c2c(Cl)cccc2[N+](=O)[O-])CC1 | 2.0 | 43 | 13 | u | -9
21 | CCc1c(O)nc(SCC(=O)Nc2ccccc2)n(C(C)CC)c1=O (stereo unspecified) | 0.5 | -16 | -2.2 | -6 | x
22 | O=C(CN1C(=O)C2C3C=CC(C3)C2C1=O)Nc1ccc(F)cc1 (stereo unspecified) | -0.7 | 4 | -0.2 | -5 | -2
23 | CCOc1ccc2oc(C(=O)NCC3CCCO3)c(C)c2c1 (stereo unspecified) | 1.0 | 2 | 1.1 | -1 | -3
24 | O=C1NC[C@@H](Cc2ccc(O)cc2)N(CCc2cccc(F)c2)C1=O | -0.4 | -24 | 1.7 | 3 | -1

nr | rRNA inh HTS | rRNA inh HTS OD600 | rRNA inh HTS RFP | RanGTP-Imp inh | Vif TR-FRET
13 | x | x | x | 18* | -1%
14 | 12 | 14 | 2.6 | 0.1 | -1%
15 | -16 | -26 | -4.3 | -2.9 | x
16 | 8 | 12 | -0.6 | -1.0 | x
17 | x | x | x | 1.3 | 14%
18 | 15 | 13 | 0.9 | 0.7 | x
19 | -8 | -6 | -1.0 | 0.8 | x
20 | -31 | -41 | -18 | -2.6 | x
21 | 10 | -5 | 16 | -2.8 | 10%
22 | 7 | 4 | 6.2 | 3.1 | 7%
23 | 2 | -2 | 1.3 | 0.5 | -8%
24 | -6 | 4 | 2.4 | 3.5 | x

By substructure: the entries above containing an aryl thioether with sulfur outside any ring (2)
nr | Structure | A1 inh | T cruzi repl | MLL AF4-AF9 inh | Calb FLC | Beta apoptosis
1 | COCCCNC(=O)c1ccccc1SC | -0.1 | 7 | -3.9 | 23 | -5
21 | CCc1c(O)nc(SCC(=O)Nc2ccccc2)n(C(C)CC)c1=O (stereo unspecified) | 0.5 | -16 | -2.2 | -6 | x

nr | rRNA inh HTS | rRNA inh HTS OD600 | rRNA inh HTS RFP | RanGTP-Imp inh | Vif TR-FRET
1 | 14 | 4 | 4.3 | 0.3 | 12%
21 | 10 | -5 | 16 | -2.8 | 10%

Additional entries.
nr | Structure | A1 inh | T cruzi repl | MLL AF4-AF9 inh | Calb FLC | Beta apoptosis
25 | O=c1c2ccccc2cnn1Cc1n[nH]c(=S)n1-c1cc(Cl)cc(Cl)c1 | 0.7 | -11 | -1.6 | 0 | 2
26 | CCC1(c2ccc(F)cc2)NC(=O)N(CC(=O)Nc2ccc(N3CCCCC3)cc2)C1=O (stereo unspecified) | 0.0 | 10 | 22 | x | 9
27 | Cc1ccc(N2CC(C(=O)N3CCc4ccccc4C3)CC2=O)cc1 (stereo unspecified) | 0.1 | 11 | x | -4 | -2
28 | CCOC(=O)c1c(-c2ccc(F)cc2)csc1/N=C/N(C)C | 0.1 | -3 | 0.1 | -22 | -2
29 | CCOC(=O)C1CCN(C(c2cccs2)c2sc3nc(C)nn3c2O)CC1 (stereo unspecified) | 0.8 | 3 | 5.8 | -4 | -1
30 | C=CCc1cc(OC)ccc1OCCCCn1cncn1 | 0.2 | 1 | -6.3 | -8 | x
31 | Cc1csc(=O)n1CC(=O)OCC(=O)c1c(N)n(C)c(=O)n(C)c1=O | -0.1 | -4 | -7.3 | 2 | 0
32 | Cc1nnc(SCc2cccs2)[nH]c1=O | 1.4 | -16 | x | -3 | -4
33 | Cc1c(C#N)c2ncn(CCCN(C)C)c(=O)c2n1-c1ccccc1 | 0.2 | -5 | x | -6 | -3
34 | CC1CCN(C(=O)CNC(=O)CNC(=O)Cc2ccccc2)CC1 | -0.1 | -7 | -1.5 | -6 | 0
35 | CCOC(=O)c1[nH]c(C)c(/C(O)=C2\C(=O)C(=O)N(CCN3CCOCC3)C2c2cccs2)c1C (stereo unspecified) | 0.2 | -4 | x | 10 | -5
36 | CC12CCC(C(=O)NNC(=O)c3ccc(Br)cc3)(OC1=O)C2(C)C (stereo unspecified) | 0.1 | 1 | 0.4 | 2 | -7

nr | rRNA inh HTS | rRNA inh HTS OD600 | rRNA inh HTS RFP | RanGTP-Imp inh | Vif TR-FRET
25 | -6 | -8 | -6.1 | -6.6 | x
26 | -9 | -11 | 2.9 | 0.7 | x
27 | x | x | x | 2.6 | 0%
28 | -31 | -30 | -15 | 1.5 | -10%
29 | 3 | -1 | -2.7 | 5.6 | 56µM*
30 | -9 | -7 | -0.1 | -1.3 | x
31 | 1 | 0 | 0.2 | -0.8 | -4%
32 | x | x | x | 3.9 | -5%&-5%
33 | x | x | x | -0.4 | -1%
34 | 8 | 9 | -1.6 | -1.6 | x
35 | x | x | x | -0.2 | 13%
36 | 12 | 9 | 4.1 | -1.1 | x

(next part)
nr | Structure | A1 inh | T cruzi repl | MLL AF4-AF9 inh | Calb FLC | Beta apoptosis
37 | CCN1C(=O)c2cccc3c(S(=O)(=O)Nc4ncccc4C)ccc1c23 | -1.7 | 9 | x | 7 | 5
38 | COc1ccc(CCn2c(NN=C(C)C)nc3c2c(=O)[nH]c(=O)n3C)cc1 | 0.1 | -1 | 5.7 | 1 | 3
39 | CCN(CC)S(=O)(=O)c1ccc(N2CCOCC2)c(NC(=O)c2cnccn2)c1 | 0.6 | 24 | x | -3 | -1
40 | Cc1cccc(OCc2nc(-c3ccc(-n4cccc4)cc3)no2)c1 | x | -25 | -10 | 2 | x
41 | COc1ccc(NC(=S)Nc2ccccc2OC)c(OC)c1 | -0.9 | 10 | 6.8 | -6 | x
42 | O=[N+]([O-])c1cc2c(cc1/C=N/Nc1nc(N3CCCC3)nc(N3CCCC3)n1)OCO2 | 0.0 | 14 | x | -16 | 2
43 | COc1ccc(-c2cc(-c3ccco3)[nH]c(=O)c2C#N)cc1OC | 1.5 | 0 | 3.0 | 17 | 0
44 | Cc1coc2cc3oc(=O)c(Cc4ccccc4)c(C)c3cc12 | 0.6 | 43 | 1.7 | 7 | 10
45 | ClCC1CN(Cc2ccccc2Cl)CCO1 (stereo unspecified) | 0.7 | -9 | -2.2 | -3 | -6
46 | COc1ccc(C(=O)CSc2nnc(NC(=O)C3CC(=O)N(c4cccc(OC)c4)C3)s2)cc1 (stereo unspecified) | 2.0 | 18 | -4.8 | 11 | -3
47 | COc1ccccc1N(C(=O)c1ccco1)C(C(=O)NC1CCCCC1)c1cc(OC)c(OC)c(OC)c1 (stereo unspecified) | 0.5 | -1 | 0.6 | 1 | -2

nr | rRNA inh HTS | rRNA inh HTS OD600 | rRNA inh HTS RFP | RanGTP-Imp inh | Vif TR-FRET
37 | x | x | x | u | 1%
38 | 5 | 0 | 2.1 | 3.1 | u
39 | x | x | x | 5.8 | -1%
40 | 12 | 16 | 2.7 | 1.4 | -21%
41 | -2 | -3 | 1.5 | 1.2 | -1%
42 | x | x | x | -2.0 | 14%
43 | 21 | 11 | 15 | 8.1 | u
44 | -22* | -5.4* | 3.6* | 7.0 | -12%
45 | 14 | 11 | -4.0 | 0.0 | 2%
46 | 17 | 7 | -9.4 | 1.6 | 5%
47 | 6 | 3 | 0.7 | -0.9 | x

Entries by screen from above.
Nos. 1–6 in Calb FLC read 23, -5, 34, 17, 32, -2

Screening data: PubChem, several laboratories

Some of the compounds tested; count on the stated rates, not on these rows.
